Assay outcomes as filed in PubChem.
TRPML1 blocker = qHTS for Inhibitors of the Human Mucolipin Transient Receptor Potential 1 (TRPML1); Mucolipin-1 (Homo sapiens), Q9GZU1; TRPML1-inducible cells, Ca2+ dye fluorescence, FDSS; active compounds read low; inhibition of EC80 agonist-evoked calcium signal; actives 0.02% (n = 390,000); activity change, negative = inhibition, % (no concentration beside the values); in the data active means activity change below about -50%; inconclusive means about -30% to -50%; inactive means above about -30%;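 further: stimulus is agonist 54-4 at its EC80 concentration; on the % scale 0 is the no-effect control and ±100 the full control effect; compound concentration not given in the record; the text of the record puts the active cut at -80%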
Target sequence (Q9GZU1 whole entry, looked up): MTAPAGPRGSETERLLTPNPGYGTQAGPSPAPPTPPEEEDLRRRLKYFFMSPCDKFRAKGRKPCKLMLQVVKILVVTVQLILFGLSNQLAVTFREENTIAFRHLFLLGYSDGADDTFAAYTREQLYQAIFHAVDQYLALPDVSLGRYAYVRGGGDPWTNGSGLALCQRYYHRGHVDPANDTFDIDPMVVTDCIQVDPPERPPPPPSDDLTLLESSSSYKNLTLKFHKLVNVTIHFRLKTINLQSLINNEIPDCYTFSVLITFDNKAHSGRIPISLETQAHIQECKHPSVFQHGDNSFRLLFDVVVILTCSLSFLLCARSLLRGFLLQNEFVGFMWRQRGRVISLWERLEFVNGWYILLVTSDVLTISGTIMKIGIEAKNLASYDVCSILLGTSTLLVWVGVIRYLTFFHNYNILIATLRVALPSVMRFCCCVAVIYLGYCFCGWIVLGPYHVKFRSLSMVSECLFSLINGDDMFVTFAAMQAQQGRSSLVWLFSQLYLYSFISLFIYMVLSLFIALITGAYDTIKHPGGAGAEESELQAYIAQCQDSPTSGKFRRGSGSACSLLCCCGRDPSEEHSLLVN
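Tet-induced TRPML1-DL cells loaded with Ca8 no-wash calcium dye were read kinetically on FDSS. Compound addition was followed by EC80 agonist 54-4 (4 uM final); inhibition was read over 110 s.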
Sfp PPTase inh = qHTS Assay for Inhibitors of Bacillus subtilis Sfp phosphopantetheinyl transferase (PPTase); 4'-phosphopantetheinyl transferase ffp (Bacillus subtilis), Q9F4F7; Biochemical Sfp PPTase activity, qHTS; Potency, µM, without a hit: max response, negative = inhibition, usual class: inhibitors; actives 3.5% (n = 310,000); AID 1490, 2009; active means well fitted inhibition curve with a large enough effect; inconclusive means small, poorly fitted or top-dose-only effect, or another doubt; inactive means no such curve, though single readings can be large or run the other way;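 further: the enzyme is Sfp with the accession as filed and its product quenches rhodamine fluorescence; potency means the concentration at half of the fitted maximal effect; 0% = enzyme reaction without inhibitor and -100% = no enzyme wells; top concentration of the series not given in the record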
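Reaction rates are the 30-min fluorescence difference (ex 525, em 598 nm) in wells containing 15 nM Sfp, 5 uM rhodamine-CoA and 12.5 uM BHQ-2-YbbR at pH 7.6 with 10 mM MgCl2.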
TRPML1 ag = qHTS for Agonists of the Human Mucolipin Transient Receptor Potential 1 (TRPML1); Mucolipin-1 (Homo sapiens), Q9GZU1; TRPML1-expressing cells, Ca2+ dye fluorescence, FDSS; host cell line not named in the record; reference of the full effect not given here; activation, % (concentration not given with the values); actives 0.12% (n = 410,000); AID 624414, 2012; in the data active = activation above about 50%; inconclusive = about 30% to 50%; inactive = below about 30%; further: 0% is about no effect; the text of the record puts the active cut at 80%
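Tet-induced TRPML1-DL cells, 1,500 per well, cultured overnight, were loaded with a no-wash Ca2+ dye for 45–90 min. Calcium fluorescence was recorded on the FDSS for 110 s after compound addition, before the EC80 agonist (4 uM 54-4) was added.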
PINK1 modulator = A Quantitative High throughput Screen to Identify Chemical Modulators of PINK1 Expression; Potency, µM (series often up to 76.6 µM), without a hit: at the highest dose activation (PINK1 increase), actives largely listed as activators; actives 0.2% (n = 410,000); PINK1 immunofluorescence, high-content cytometry, 24 h; AID 624263, 2012; active = well fitted activation curve with a large enough effect; inconclusive = small, poorly fitted or top-dose-only effect; inactive = flat fitted curve, though single readings scatter; cell line not stated here;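 further: potency means the concentration at half of the fitted maximal effect; % of control where 0% means no effect; nearly all actives have a fitted effect of over 65% in size; a mitochondrial uncoupler was the plate control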
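Stable cell line treated 24 h with compounds at 5 concentrations (CCCP controls), then fixed and immunostained for PINK1 plus nuclear and cell stains; PINK1 immunofluorescence quantified by laser-scanning microplate cytometry.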
Menin-MLL FL inh = qHTS Assay for Inhibitors Targeting the Menin-MLL Interaction in MLL Related Leukemias: Competition With Fluorescein Labeled MLL-derived Peptide. Fluorescence polarization, fluorescein-MLL peptide displacement from menin. FP activity change, % at 61.4 µM. AID 1766, 2009. 290,000 tested, under 10 active; inconclusive = falling polarisation curve, or a change in total fluorescence; inactive = total fluorescence flat and polarisation flat or rising; no compound was filed as active; the % refers to the polarisation; negative = inhibition;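 further: % of control where 0% means no effect; inhibitors lower the polarisation; unlabelled MLL peptide was the positive control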
ClpP mod = qHTS Assay for Activators of ClpP | Potency, µM (doses to about 57.5 µM), inactives show at the top dose activity change, negative = active | ATP-dependent Clp protease proteolytic subunit (Bacillus subtilis (strain 168)), P80244 | purified B. subtilis ClpP, FRET peptide cleavage, 20 min | actives 1.9% (n = 340,000) | AID 651965, 2013; active = well fitted falling curve with a large enough effect; inconclusive = small, poorly fitted or top-dose-only effect; inactive = no such curve, though single readings can be large or run the other way; further: potency means the concentration at half of the fitted maximal effect; the source files actives as falling curves though it sought activators and does not explain the sign; nearly all actives have a fitted effect of over 65% in size; many hits overshoot -100%
Target sequence (P80244 whole entry, looked up): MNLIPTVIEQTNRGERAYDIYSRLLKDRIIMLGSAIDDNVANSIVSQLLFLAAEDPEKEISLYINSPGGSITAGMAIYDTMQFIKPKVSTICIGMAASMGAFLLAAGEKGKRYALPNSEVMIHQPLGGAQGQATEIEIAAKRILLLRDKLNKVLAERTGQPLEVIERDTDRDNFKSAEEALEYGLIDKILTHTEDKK
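Buffer: 100 mM Tris/HCl pH8, 100 mM KCl, 0.05% low protease BSA, 2.5% glycerol, 0.01% Tween-20. ClpP 10 microg/mL final; 20 min RT; delta FRET normalized to ADEP and DMSO controls.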
TRPV1 potentiator = HTS Assay for Compounds that Act as Potentiators of the Vanilloid Receptor 1 | Transient receptor potential cation channel subfamily V member 1 (Homo sapiens), Q8NER1 | TRPV1-expressing cells, Fluo-8 calcium influx, capsaicin EC20 potentiation; host cell line not named in the record; control for the full effect not named in the record | actives 0.02% (n = 320,000) | potentiation, % at 8.33 µM; active means potentiation above 80%; inconclusive means 30% to 80%; inactive means below 30%; further: 0% is about no effect
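TRPV1-expressing cells were cultured overnight at 35.5C and loaded with Fluo-8 calcium dye for 40 to 90 min at room temperature. After a 10 s baseline, compound was added and calcium influx was read kinetically for 3 min (ex 480/em 520 nm).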
An asterisk follows results filed as active; ? = inconclusive; . = no result given; & = joins results of further samples; [ ] = dose if it differs, or a comment.

Screens in order: TRPML1 blocker	Sfp PPTase inh	TRPML1 ag	PINK1 modulator	Menin-MLL FL inh	ClpP mod	TRPV1 potentiator
O=C(NNC(=O)c1ccc(SCC2CCCO2)c([N+](=O)[O-])c1)c1ccc(Cl)c([N+](=O)[O-])c1 (stereo not drawn)
  -3	14%	-0.7	1.0%[38.3 µM]	-0.1	0.5%	3
N#Cc1ccccc1OCCN1C(=O)c2ccccc2C1=O
  10	14%	0.6	0.9%	0.1	2.1%	3
O=C(COC(=O)c1ccc(Cl)c([N+](=O)[O-])c1)Nc1ccccc1OC(F)F
  -6	1%	0.2	2.4%	2.3	1.1%	-1
CCc1ccc(CNC(=O)C2CCCN(c3nc4ccccc4o3)C2)cc1 (stereo not drawn)
  -3	-1%	4.6	4.6%[38.3 µM]	-0.9	-0.6%	-37
O=C(Nc1ccc2nc3ccccc3nc2c1)c1ccccc1
  -10	6%	1.2	7.6%	?	1.2%	-2
CCn1c(Oc2ccccc2F)nc2c1c(=O)n(C)c(=O)n2C
  -14	7%	1.5	-0.8%	2.1	-2.3%	6
CC(=O)c1ccc(N2CCN(c3ccc(S(=O)(=O)NCCN(C)C)cc3[N+](=O)[O-])CC2)cc1
  3	7%	-0.1	0.0%	-4.4	2.2%	21
CN(C)S(=O)(=O)c1ccc(C(=O)NCc2ccccn2)cc1
  13	18%	-0.1	6.7%	2.9	.	-1
Cc1ccc(/C=N/NC(=O)c2nnn(-c3nonc3N)c2-c2ccccc2)o1
  -6	?	-0.8	-0.9%	4.9	1.2%	11
CC(C)(C)OC(=O)N1CCC[C@H]1C(=O)O
  -9&-18	13%&9%	-0.1&0.7	0.4%	-1.0&-1.2	-0.4%	14
CCc1sc(Nc2cccc(Cl)c2)nc1-c1cc2cccc(OC)c2oc1=O
  -13	.	-0.7	2.6%	.	-0.3%	.
O=C(O)Cc1coc2cc3c(cc12)CCC3
  10	18%	1.1	-0.7%	0.6	25µM*	0
CC(C)c1ccc(N2C(=O)CSC23C(=O)N(Cc2ccccc2F)c2ccccc23)cc1 (stereo not drawn)
  -2	.	2.2	3.4%	.	-0.2%	.
COc1ccc(CNC(=O)CSc2nc(-c3ccc(OC)c(OC)c3)cc(C(F)(F)F)n2)cc1
  7	.	0.5	4.2%	.	4.1%	.
COc1cccc(OC)c1C(=O)N1CCN(Cc2ccccc2F)CC1
  13	.	0.7	0.9%	.	0.3%	.
Cc1ccc(OCCOC(=O)c2cc(S(=O)(=O)N3CCCCC3)ccc2N2CCOCC2)cc1
  4	.	2.3	2.5%	.	-22%	6
O=Nc1c(O)n(Cc2ccc(Cl)cc2Cl)c2ccccc12
  4	-22%	4.3	1.2%	-0.5	0.7%	11
CC(=O)C1=C(O)C(=O)N(c2ccc(O)cc2)C1c1ccc([N+](=O)[O-])cc1 (stereo not drawn)
  10	11%	0.6	0.5%	-7.8	.	-5
CCn1c(SCC(=O)Nc2nc(C)c(C)s2)nnc1-c1ccco1
  -1	21%	3.3	?	2.5	0.3%	20
CCOC(=O)c1ccccc1NS(=O)(=O)c1ccccc1F
  -6	-18%	-0.4	9.0%[38.3 µM]	2.7	-5.5%	18

(list continues)
Screens in order: TRPML1 blocker	Sfp PPTase inh	TRPML1 ag	PINK1 modulator	Menin-MLL FL inh	ClpP mod	TRPV1 potentiator
O=C(CCl)Nc1ncc(S(=O)(=O)c2ccc([N+](=O)[O-])cc2)s1
  0	.	-0.1	5.4%	.	.	.
C=CCSc1nc(NC)c2sccc2n1
  -16	3%	1.3	3.5%	5.3	47%	5
COc1ccccc1OCC(=O)OCC(=O)NC1CCCCC1
  -9	.	-0.7	0.3%	.	.	.
Cc1cccc(C)c1-n1nnnc1C(c1ccccc1)N1CCN(C/C=C/c2ccccc2)CC1 (stereo not drawn)
  13	.	1.8	8.7%	.	0.1%	.
CN(C)c1ccc(-c2nc(-c3ccccn3)no2)cc1[N+](=O)[O-]
  17	.	-0.1	0.8%	.	2.2%	.
COc1ccc(N(C(=O)c2ccncc2)S(=O)(=O)c2cccs2)cc1
  42	-3%	1.9	4.9%	-1.0	.	11
COc1cc(C(=O)Oc2cc(N)n(S(=O)(=O)c3ccccc3)n2)cc(OC)c1OC
  6	-8%	0.0	2.4%	1.1	.	-2
CCOc1ccc2ccccc2c1/C=N/NC(=O)CNC(=O)C(c1ccccc1)c1ccccc1
  -13	20%	-0.9	-0.5%	1.2	-28%	1
OC(CN1C2=NCCN2c2ccccc21)c1ccccc1 (stereo not drawn)
  21	22%	-0.9	-1.3%	3.3	-1.0%	-1
O=C(Nc1ccc(N2CCCCC2)cc1)c1ccc(F)cc1F
  23	5%	0.9	4.6%	5.6	-1.8%	-17
O=C(NOCc1ccccc1)c1ccc(Cl)cc1
  -17	.	0.0	-0.1%	.	-1.0%	-11
CC(=O)c1ccc(NC(=O)C2CCN(S(=O)(=O)c3ccc4c(c3)N(C(C)=O)CCO4)CC2)cc1
  -12	10%	-0.6	-0.4%	-0.5	-0.5%	6
C(#CC1CCCC1)c1ccc2c(c1)COc1c3ccccc3nn1-2
  -10	-20%	-0.9	0.5%	-0.3	-3.3%	9
CCCCn1c(SCC(N)=O)nnc1-c1cc(OC)c(OC)c(OC)c1
  .	8%	.	.	4.9	.	-3
O=C(c1ccc2c(c1)N(Cc1ccc(Cl)cc1)C(=O)c1ccccc1S2(=O)=O)N1CCCCCC1
  4	.	0.0	2.3%	.	-2.3%	.
O=C(C[C@H]1C(=O)N(CCc2ccccc2)C[C@@H]1Cc1ccccc1)Nc1ccccc1
  -1	0%	0.7&1.3	18%	-3.3	2.6%&2.5%	-21
O=C1NC[C@H](Cc2ccccc2)N(C[C@@H]2CCCN2C[C@H](Cc2ccc(O)cc2)N2C[C@H](Cc3ccc(O)cc3)N(CC3CCCCC3)C(=O)C2=O)C1=O
  .	.	-0.5	0.0%	.	-0.1%	.
CCc1ccc(NC(=S)N2CCCC(C(F)(F)F)C2)cc1 (stereo not drawn)
  3	9%	0.6	-0.7%	0.0	.	-1
CCCC[C@@H]1CCCO[C@@](C(=O)NCCOC)(C(F)(F)F)C1
  -10	5%	0.0	.	-1.8	.	.
CC(NCC(=O)Nc1cc(S(=O)(=O)N2CCOCC2)ccc1Cl)c1ccc(Cl)cc1Cl (stereo not drawn)
  45	.	2.1	0.8%	.	1.5%	2

The list goes on.
Screens in order: TRPML1 blocker	Sfp PPTase inh	TRPML1 ag	PINK1 modulator	Menin-MLL FL inh	ClpP mod	TRPV1 potentiator
CCCOP(=O)(OCCC)c1nc(-c2ccccc2)oc1NCc1ccccc1
  89	-12%	0.1	0.3%	-0.3	.	-17
O=C(c1cc(COc2ccc(F)cc2Cl)on1)N1CCCC(c2ccccc2)C1 (stereo not drawn)
  -11	-8%	9.6	0.7%	2.3	.	-2
CN1c2ccccc2C(O)=C(C(=S)Nc2ccc(F)c(Cl)c2)S1(=O)=O
  1	11%	0.3	?	0.5	-11%	21
O=S(=O)(Nc1cc(Cl)ccn1)c1ccc(Cl)cc1
  -11	12%	0.3	-0.1%[38.3 µM]	-0.4	-3.7%	7
CSC(=NC#N)N1CCN(c2ccc([N+](=O)[O-])cc2)CC1
  -20	-10%	2.2	1.1%	2.2	.	1
CC(C)CN(C(=O)c1ccc(S(=O)(=O)N2CCCC2)cc1)C1CCS(=O)(=O)C1 (stereo not drawn)
  -9	.	0.7	-0.2%	.	0.9%	0
Cc1cc(Oc2ccccc2)nc(SCC(=O)Nc2ccccc2)n1
  -5	14%	1.0	-1.3%	2.4	-0.2%	-4
Cc1[nH]c2ccccc2c1C(=O)CSc1nc2ccccc2[nH]1
  -2	-3%	-0.6	0.3%[38.3 µM]	-1.0	0.6%	2
O=C(Nc1ccc(C(=O)NCCCN2CCN(c3ccccc3)CC2)cc1)C1=CSCCO1
  -3	1%	8.7	-1.2%	.	-0.9%	-10
Cc1nnc(OCC(=O)NCCC2=CCCCC2)c2ccccc12
  0	-5%	-0.3	7.1%[38.3 µM]	-0.1	0.0%	-16
CC(C)c1ccc(-c2noc(SCC(=O)N3CCN(c4ccc(F)cc4)CC3)n2)cc1
  14	.	1.9	0.9%	.	0.8%	.
CC1(C)Cc2c(sc3c2c(N)nc(=S)n3Cc2ccc(Br)cc2)CO1
  -7	2%	0.8	-0.7%	-1.5	.	5
Cc1ccc(C(C#N)c2ccc3c(C(F)(F)F)cc(C(F)(F)F)nc3n2)cc1 (stereo not drawn)
  -7	6%	0.5	8.9µM*	1.1	-2.3%	-3
O=C(c1cc2nc(-c3ccco3)cc(C(F)(F)F)n2n1)N1CCN(c2ccc(F)cc2)CC1
  -9	-16%	0.8	-3.7%[38.3 µM]	0.9	-3.0%	7
COc1ccc(NS(=O)(=O)c2ccc(NC(=S)NC(=O)C(C)C)cc2)cc1
  20	9%	5.0	-0.7%	3.2	0.8%	3
O=C(CN1CC(=O)Oc2ccccc21)NCc1ccco1
  -10	56µM*	-0.5	0.2%	0.1	-16%	-2
O=C(Nc1ccccc1C(=O)N1CCNCC1)c1ccco1
  .	15%	.	.	-0.4	.	-2
c1ccc(C(Cc2nc(-c3ccncc3)no2)c2ccccc2)cc1
  71	-12%	3.2	0.2%	5.3	-0.9%	.
CCOc1ccc(NC(=O)C2CCCN(S(=O)(=O)c3cccc4nonc34)C2)cc1 (stereo not drawn)
  25	.	-0.4	3.7%	.	0.7%	.
COc1ccc(C(=O)OCC(=O)NCCN2C(=O)CSC2=O)cc1[N+](=O)[O-]
  -4	.	1.8	-1.0%	.	.	.
